Autofluor counter: compound fluorescence in toxin protease inhibitor counterscreen; fluorescence intensity (no concentration beside the values); actives 3.1% (n = 360,000); compound autofluorescence counterscreen, microsphere flow cytometry; stronger effect = higher value;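 active = at least 3 SD above the mean of all compounds, about 16000 in these data; inconclusive = too few beads counted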;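 also: 100 nL of 1 mM stock went into each well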
RN4220 kill: S. aureus RN4220 growth inhibition | inhibition, % (test concentration not listed) | AID 1259311 | OD600, 16 h | actives 0.33% (n = 330,000);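 active = z-score of -3 or lower and OD600 up to 0.18 on both plates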;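 also: plate controls were untreated cells for no effect and reference antibiotic for full effect; stock transfer was 100 nL into about 80 µL; one replicate is shown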
Mtb hypoxia rep: inhibitors of hypoxia-regulated fluorescent reporter in Mycobacterium tuberculosis. fluorescence inhibition, % (test concentration not listed). AID 1159583. actives 0.1% (n = 300,000). M. tuberculosis hypoxia-regulated fluorescent reporter, fluorescence;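 active = 35 to 45% if threefold the growth effect, above 45% if 1.5-fold the growth effect; inactive = the rest, general growth blockers included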;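 also: wells of about 50 µL received 100 nL stock; 0% = vehicle wells and 100% = reference inhibitor wells; whole bacteria with a GFP reporter of the hypoxia response; strong numbers were not always called active; many hits fall short of the cut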
BJeLR viability: kills HRASV12-expressing BJeLR cells | BJeLR (HRASV12) viability, CellTiter-Glo ATP luminescence, 48 h; reference of the scale not given here | inhibition, % (concentration not given with the values) | actives 0.17% (n = 300,000);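 active = replicate mean above 50%; inconclusive = above 50% but judged a plate artefact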;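 also: 50 nL library stock added to about 25 µL; numbers are from one replicate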
PrP 5UTR inh: suppresses PrP 5' UTR mRNA reporter expression; cell-based PrP 5' UTR mRNA reporter, plate reader; inhibition, % (no concentration beside the values); actives 0.35% (n = 340,000); AID 488862;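 active = every replicate at 50% or more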;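 also: 0 = median of the neutral control wells; tested in H4 reporter cells; numbers are from one replicate; inactives centre near -14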
Sa ugtP lethal: compounds lethal to S. aureus RN4220 ugtP deletion mutant. growth inhibition, % (no concentration beside the values). actives 0.54% (n = 330,000). OD600 growth, 16 h; some inactives read as strong as hits;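 active = z-score under -3 and OD600 up to 0.15 on both plates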;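 also: plate controls were untreated wells for no effect and antibiotic for full effect; wells of about 80 µL received 100 nL stock; the first replicate is given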
Mtb hypoxia rep growth: further read-out of Mtb hypoxia rep, marked with its call; growth inhibition, %; measured here: M. tuberculosis growth (absorbance);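 0% = vehicle and 100% = reference antibiotic; read after six days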
Starred values were filed as active, the others as inactive; ? = inconclusive; . = not tested or not shown; & = joins results of further samples.

Under each structure – Mtb hypoxia rep	PrP 5UTR inh	Autofluor counter	Sa ugtP lethal	Mtb hypoxia rep growth	RN4220 kill	BJeLR viability
- CCN1CCN(S(=O)(=O)Cc2ccccc2)CC1
 : 8	-23	6233	14	1	2.7	-3
- Cc1ccc(NC(=O)C(=O)NCC2CCN(C(=O)c3cccc([N+](=O)[O-])c3)CC2)cc1
 : -2	-5	4462	2	-4	6.7	0
- COc1ccc(-c2ccc3oc(-c4ccc(OC)cc4)c(-c4ccc(OC)cc4)c3c2)cc1
 : 5	-22	4050	4	2	7.0	0
- CCOC(=O)c1nn(-c2ccccc2C)c(=O)cc1OCC(=O)Nc1cccc(OC)c1
 : .	-12	5742	.	.	.	-4
- CCOC(=O)C1CCN(C(=O)CCNS(=O)(=O)c2ccc3c(c2)CCN3C(=O)CC)CC1
 : 9	11	5459	3	13	2.8	3
- CCC(C)NC(=O)CNC(=O)c1nn(-c2ccc(OC)cc2OC)c(=O)c2ccccc12 (configuration not stated)
 : -5	-10	3736	-5	-4	0.0	14
- Cn1ccnc1SCC(=O)Nc1ccccc1
 : .	-25	4893	4	.	2.3	3
- CC(OC(=O)c1cc(S(=O)(=O)N2CCOCC2)ccc1F)C(=O)NCC1CCCCC1 (configuration not stated)
 : -24	-31	3969	0	1	1.5	.
- COCCN1Cc2cccc(C(=O)NC(C)c3cccs3)c2C1=O (configuration not stated)
 : 11	-17	3776	-2	11	3.9	4
- Cc1ccc(C(=O)c2ncc[nH]2)cc1
 : -1	-54	4316	1	4	2.0	2
- CCn1c(=O)c(=O)n(CC)c2cc(S(=O)(=O)Nc3ccc(C)cc3)ccc21
 : 7	-13	4950	6	3	3.4	-10
- Cn1c(=O)c2c(nc(Br)n2CC(=O)c2cccs2)n(C)c1=O
 : .	-14	2136	2	.	-4.6	12
- CCOc1cc(C(=S)N2CCCCC2)ccc1OS(=O)(=O)c1ccc(Br)cc1
 : -1	-19	5134	-8	11	12	0
- O=C(c1cccc(Cl)c1)C1CCCN(Cc2cccc3cnccc23)C1 (configuration not stated)
 : 1	-4	11258	3	3	4.5	6
- CCN(CC)c1ccc(C2NC(=O)NC(C)=C2C(=O)Nc2ccccc2)cc1 (configuration not stated)
 : -5	3	3696	8	-5	18	-7
- Cc1ccc(CNC(=O)C2CCN(S(=O)(=O)c3ccc4c(c3)CC(C)N4C(=O)C3CC3)CC2)cc1 (configuration not stated)
 : 2	-35	5767	16	-1	0.6	-7
- Cn1c(=O)n(C)c2cc(C=NNC(=O)c3ccc(Cl)cc3)ccc21
 : -1	.	.	-11	7	-6.2	.
- COc1cccc(NC(=O)CN(C)C(=O)c2ccccc2OCC(=O)Nc2cccc(C(F)(F)F)c2)c1
 : 6	-17	6780	-8	2	1.4	-1
- Cc1cc(C)n(CC(=O)N/N=C/c2ccccn2)n1
 : .	-37	2518	.	.	.	-11
- COC(=O)CCC(NS(=O)(=O)OCC(Cl)(Cl)Cl)c1ccccc1 (configuration not stated)
 : 4	-10	3956	4	7	7.2	-3
- O=C(O)C1C2C=CC3(CN(C/C=C/c4ccccc4)C(=O)C13)O2 (configuration not stated)
 : 7	-21	8955	5	2	3.4	-8
- N#Cc1nc(-c2ccccc2F)oc1NCc1cccc2c1OCO2
 : 3	-8	12488	-9	6	-1.8	-2
- O=C(O)CCC(=O)N(Cc1ccccc1)Cc1ccccc1
 : -3	-9	3664	-2	-2	-3.2	0
- O=C(CSc1n[nH]c(=O)[nH]c1=O)N1CCCCCC1
 : 10	-23	3527	6	9	6.0	-9
- CC(C)N1CC2=C(OC(N)=C(C#N)C2c2cccnc2)/C(=C/c2cccnc2)C1 (configuration not stated)
 : 7	-13	4547	2	8	3.6	-5
- NC(=S)N/N=C/c1cccc(Br)c1
 : .	-9	5317	.	.	.	-13
- CC(C)Cc1ccc(/C=C/C(=O)N2CCOCC2)cc1
 : 1	-81	4458	4	6	0.3	5
- CC(=O)N1CCN(c2ncnc3sc(-c4ccccc4)cc23)CC1
 : 18	-3	4135	-8	8	6.7	3
- CC(C)c1cc(-c2cc(-c3ccc(Cl)cc3)on2)nc(NC2CCCC2)n1
 : -9	-23	2861	-4	1	-4.6	-1
- Cc1ccc(C(=O)Nc2nc3nc(-c4ccccc4)cc(=O)n3[nH]2)cc1
 : -4	-22	2830	-10	0	-19	6
- Nc1cc(N)nc(SCc2cc([N+](=O)[O-])cc3c2OCOC3)n1
 : 7	-14	4558	5	13	4.3	0
- O=S(=O)(c1ccccc1)N1CCC(N2CCCCCC2)CC1
 : 4	-24	7109	-1	10	3.8	-3
- COc1ccc(S(=O)(=O)NCCc2cn3nc(C)c(C)nc3n2)cc1
 : -8	1	4283	-3	-2	-3.1	3
- O=C(CSc1nc2cc(Cl)ccc2s1)NCC1CCCO1 (configuration not stated)
 : 10	-19	2787	6	8	0.6	.
- CC(=NNC(=O)c1ccc(NS(=O)(=O)c2cccs2)cc1)c1ccc(OCC(N)=O)cc1
 : -7	.	5637	-2	-3	0.3	.
- CC1(C)CC(=O)c2c(O)cc(OCC(=O)Nc3ccc(CCO)cc3)cc2O1
 : .	-7	4245	-8	.	3.7	3
- COc1cc2c(cc1OC)CN(C1CC(=O)N(c3c(C)cccc3C)C1=O)CC2 (configuration not stated)
 : -2	-11	4450	6	4	5.2	-22
- Cc1c(NC(=O)COc2ncnc3c(Cl)cc(Cl)cc23)c(=O)n(-c2ccccc2)n1C
 : 4	-7	6890	12	3	4.8	-7
- O=C(NNC(=S)Nc1ccc(Br)cc1)c1ccccc1
 : 6	-26	6137	-8	0	1.5	4
- Cc1c(C)n(CC(O)CN2CCN(C)CC2)c2ccccc12 (configuration not stated)
 : 5	-16	6196	6	-2	3.4	-3
- CCOC(=O)/C(C#N)=C/Nc1ccccc1OC(F)(F)F
 : 5	-11	5928	7	6	-0.7	-9
- CC1=C(C(=O)OCc2ccccc2)C(c2ccccn2)c2c(n(C)c(=O)n(C)c2=O)N1 (configuration not stated)
 : 2&2	-16&3	?	3&-5	18&-1	7.3&-8.4	-8
- COc1ccc(CSc2nc3ccccc3c(=O)n2CCCN2CCOCC2)cc1F
 : 12	-15	4666	6	13	6.3	-6
- Cn1cnnc1SCC(=O)Nc1sccc1C#N
 : 4	-22	7594	4	3	4.2	-1
- [N-]=[N+]=NC1CC(n2ccc(=O)[nH]c2=O)OC1CO (configuration not stated)
 : 7	.	.	2	0	6.6	.

Record cards, as listed above. Order of screens: Mtb hypoxia rep, PrP 5UTR inh, Autofluor counter, Sa ugtP lethal, Mtb hypoxia rep growth, RN4220 kill, BJeLR viability
CC(=NNC(=O)c1ccc(NS(=O)(=O)c2cccs2)cc1)c1ccc(OCC(N)=O)cc1 as listed: -7, ., 5637, -2, -3, 0.3, .
COc1ccc(CSc2nc3ccccc3c(=O)n2CCCN2CCOCC2)cc1F as listed: 12, -15, 4666, 6, 13, 6.3, -6
Cc1c(NC(=O)COc2ncnc3c(Cl)cc(Cl)cc23)c(=O)n(-c2ccccc2)n1C as listed: 4, -7, 6890, 12, 3, 4.8, -7
Nc1cc(N)nc(SCc2cc([N+](=O)[O-])cc3c2OCOC3)n1 as listed: 7, -14, 4558, 5, 13, 4.3, 0
Cc1c(C)n(CC(O)CN2CCN(C)CC2)c2ccccc12 (configuration not stated) as listed: 5, -16, 6196, 6, -2, 3.4, -3

More structures follow:
Under each structure – Mtb hypoxia rep	PrP 5UTR inh	Autofluor counter	Sa ugtP lethal	Mtb hypoxia rep growth	RN4220 kill	BJeLR viability
- CCc1nnc(NC(=O)CCC(=O)N2CCN(CCOc3ccc(C)cc3)CC2)s1
 : .	-6	3675	9	.	-7.2	1
- CCOP(=O)(OCC)/C(C#N)=C/c1ccc([N+](=O)[O-])cc1
 : 0	-12	4931	-4	8	1.1	1
- COC(=O)C1=C(c2cccc(OCc3ccccc3)c2)CC2CCC1N2C(=O)NC1CCN(Cc2ccccc2)CC1 (configuration not stated)
 : 2	.	.	5	6	-1.2	.
- CC(=O)c1ccc(N2CCC(c3cc(-c4ccc(Cl)cc4Cl)n[nH]3)CC2)c([N+](=O)[O-])c1
 : -4	-8	15301	-24	5	7.2	-8
- CC(=O)c1c(C)[nH]c(C(=O)Nc2nc(-c3ccc(-c4ccccc4)cc3)cs2)c1C
 : 7	-34	2475	-4	3	17	2
- COC(=O)C1=C2SCC(=O)N2C(N)=C(C#N)C1
 : -8	-22	3615	2	-5	-0.6	-2
- O=C(CCCCn1c(=O)[nH]c2ccccc2c1=O)N1CCN(c2ncccn2)CC1
 : 8	-40	5706	1	5	4.8	-1
- O=C1CN(C(=O)CNCc2ccccc2)c2ccccc2N1
 : -1	-1	5817	0	2	2.2	-9
- CCOc1ccc(NC(=O)C2CCN(S(=O)(=O)c3ccc4c(c3)N(C(C)=O)CCO4)CC2)cc1
 : 0	-14	5418	0	-3	1.8	-1
- COc1ccccc1OCCNC(=O)C1CC(=O)N(c2cccc(SC)c2)C1 (configuration not stated)
 : -2	5	5900	2	13	1.8	-5
- COC(=O)CN(c1cc(Cl)ccc1OC)S(=O)(=O)c1ccc(OC)c(OC)c1
 : 4	-19	10524	2	1	7.9	-2
- COC(=O)c1cc(C(=O)c2cccc(Cl)c2Cl)cn1C
 : 18	-5	?	-3	11	4.2	3
- O=C(CC(Nc1ccc(Cl)cc1Cl)C(=O)O)c1ccccc1 (configuration not stated)
 : 9	63*	4583	-3	4	5.4	-7
- COc1ccc(C=NNC(=S)N[C@H]2CC3CCC2C3)cc1 (some centres not stated)
 : 0	.	.	19	2	8.4	.
- CCn1nc(C)c(/C=N\NC(=O)c2cccc(OC)c2)c1C
 : .	-37	8956	.	.	.	-2
- Cc1sc(NC(=O)Cc2ccc3c(c2)OCO3)nc1-c1ccc2c(c1)CCN2C(=O)c1cccc(F)c1
 : 4	-2	1982	3	1	3.2	0
- CCOC(=O)c1ccccc1NC(=O)CN(c1ccccc1)S(=O)(=O)N(C)C
 : 6	-12	4216	-6	3	6.5	1
- Cc1nc2sc(-c3ccccc3)cc2c(=O)n1-n1cccc1
 : 9	-82	2479	7	11	5.3	-2
- C=CCn1c(=O)c2ccccc2n2c(SCc3c(C(=O)OCC)oc4ccccc34)nnc12
 : 4	-3	?	-6	6	-1.2	-3
- CC(C)(C)c1ccc(NC(=O)CC2(C(F)(F)F)OCCO2)cc1
 : -6	-42	8008	3	-3	-0.8	2
- CCc1ccc(S(=O)(=O)NCCc2cn3ccc(C)cc3n2)s1
 : 5	-7	2572	12	2	7.5	0
- COC(CSc1nc(N)c2c3c(sc2n1)CN(C)CC3)OC
 : .	-7	3607	.	.	.	-5
- CCN1CCN(c2nc(-c3cccs3)nc3ccccc23)CC1
 : 13	-12	8942	14	2	5.8	-12
- CCn1c(SCc2nc3ccccc3nc2C)nnc1-c1cccs1
 : .	-10	3983	-4	.	2.5	1
- CSc1nc(Cl)c(Cc2ccc(OC(C)C)cc2)c(N2CCOCC2)n1
 : 5	-26	2926	97*	3	-4.8	-4

Compounds as they come. Share with any hit: about 4%.
